Assay outcomes as filed in PubChem.
TRPML1 agonist = qHTS for Agonists of the Human Mucolipin Transient Receptor Potential 1 (TRPML1). AID 624414, 2012. TRPML1-expressing cells, Ca2+ dye fluorescence, FDSS; host cell line not named in the record; reference of the full effect not given here. 410,000 compounds, 0.12% hits. activation, % (concentration not given with the values). Mucolipin-1 (Homo sapiens), Q9GZU1; in the data active = activation above about 50%; inconclusive = about 30% to 50%; inactive = below about 30%; also: 0% is about no effect; the text of the record puts the active cut at 80%
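Kinetic FDSS Ca2+ read in Tet-induced TRPML1-DL cells (ABD Ca8 dye plus quencher, 45-90 min RT loading): baseline, then compound, then 110 s agonist window; EC80 agonist 54-4 at 4uM final added afterwards for a 110 s antagonist window.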
TRPV1 potentiator = HTS Assay for Compounds that Act as Potentiators of the Vanilloid Receptor 1. 320,000 compounds, 0.02% hits. AID 540277, 2011. TRPV1-expressing cells, Fluo-8 calcium influx, capsaicin EC20 potentiation; host cell line not named in the record; control for the full effect not named in the record. Transient receptor potential cation channel subfamily V member 1 (Homo sapiens), Q8NER1. potentiation, % at 8.33 µM; active means potentiation above 80%; inconclusive means 30% to 80%; inactive means below 30%; also: 0% is about no effect
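Cells expressing TRPV1 were dye-loaded with Fluo-8 and read kinetically: 10 s baseline, 3 min after compound (agonist portion), then 2 min after EC20 capsaicin (allosteric enhancer portion). Calcium-bound dye fluorescence at 480/520 nm.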
CtBP-E1A inh = qHTS Assay for Inhibitors of the CtBP/E1A Interaction; 340,000 compounds, 0.49% hits; AlphaScreen GST-E1A/His-CtBP binding, 1536-well; active compounds read low; control for the full effect not named in the record; activity change, % (test concentration not listed); in the data active means activity change below about -65%; inconclusive means about -30% to -65%; inactive means above about -30%; also: % is scaled to controls: 0 for no effect and ±100 for the full control effect
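Steps: dispense buffer (Tris pH 8.0, NaCl 300 mM, TCEP 1 mM, BSA, Tween 20); add 5X protein mix (GST-E1A, His-CtBP, 125 nM each); pin 23 nL compound; 2 h at 37 °C, dark; add 5X beads (50 ug/mL); 1 h; read.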
D2 PAM = Beta-Arrestin HTS for Positive Allosteric Modulators of the Human D2 Dopamine Receptor: Potentiators; DiscoveRx D2 beta-arrestin cells, luminescence, 90 min; 100% = 57 uM dopamine signal; D(2) dopamine receptor (Homo sapiens), P14416; 360,000 compounds, 0.23% hits; AID 624464, 2012; potentiation, % (test concentration not listed); active = potentiation of 50% or more; inconclusive = 30% to 50%; inactive = 30% or less;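 also: compound concentration not given in the record; tested on top of an EC20 dose of dopamine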
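D2 cells co-treated with compound plus 50 nM dopamine (EC20) for 90 min at 37 deg C to detect potentiation. Beta-arrestin recruitment was read as enzyme-fragment luminescence after 1 h at ambient temperature. Full response was set by 57 uM dopamine.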
TRPML1 inh = qHTS for Inhibitors of the Human Mucolipin Transient Receptor Potential 1 (TRPML1) | AID 624415, 2012 | TRPML1-inducible cells, Ca2+ dye fluorescence, FDSS; active compounds read low; inhibition of EC80 agonist-evoked calcium signal | 390,000 compounds, 0.02% hits | activity change, negative = inhibition, % (test concentration not listed) | Mucolipin-1 (Homo sapiens), Q9GZU1; in the data active means activity change below about -50%; inconclusive means about -30% to -50%; inactive means above about -30%;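 also: stimulus is agonist 54-4 at its EC80 concentration; % is scaled to controls: 0 for no effect and ±100 for the full control effect; compound concentration not given in the record; the text of the record puts the active cut at -80%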
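Calcium fluorescence in TRPML1-DL cells induced overnight with Tet: a 110 s read after compound pin addition, then a 110 s antagonist read after challenge with 54-4 at 4 uM final (EC80).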
Six1-Eya2 blk = qHTS Assay for Inhibitors of the Six1/Eya2 Interaction; Homeobox protein SIX1 (Homo sapiens) + Protein phosphatase EYA2 (Homo sapiens), …; AlphaScreen GST-Six1/His-Eya2 binding, biochemical; active compounds read low; control for the full effect not named in the record; activity change, % (test concentration not listed); 360,000 compounds, 0.56% hits; in the data active = activity change below about -65%; inconclusive = about -30% to -65%; inactive = above about -30%; also: % is scaled to controls: 0 for no effect and ±100 for the full control effect
Target sequence (O00167 whole entry, looked up): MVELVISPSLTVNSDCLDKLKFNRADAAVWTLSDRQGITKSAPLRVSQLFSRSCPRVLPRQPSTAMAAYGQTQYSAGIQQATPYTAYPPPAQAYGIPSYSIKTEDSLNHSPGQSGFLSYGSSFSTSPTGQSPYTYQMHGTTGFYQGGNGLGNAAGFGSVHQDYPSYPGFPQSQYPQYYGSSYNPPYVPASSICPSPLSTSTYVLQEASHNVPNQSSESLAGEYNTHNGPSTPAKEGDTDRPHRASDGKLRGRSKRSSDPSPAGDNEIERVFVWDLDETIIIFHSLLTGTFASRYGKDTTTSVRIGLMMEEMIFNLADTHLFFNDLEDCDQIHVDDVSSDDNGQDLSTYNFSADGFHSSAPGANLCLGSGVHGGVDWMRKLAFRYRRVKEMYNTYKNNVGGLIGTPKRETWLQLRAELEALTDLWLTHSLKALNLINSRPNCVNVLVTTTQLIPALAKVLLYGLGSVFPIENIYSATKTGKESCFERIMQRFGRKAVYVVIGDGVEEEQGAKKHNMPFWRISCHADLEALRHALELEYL
Target sequence (Q15475 whole entry, looked up): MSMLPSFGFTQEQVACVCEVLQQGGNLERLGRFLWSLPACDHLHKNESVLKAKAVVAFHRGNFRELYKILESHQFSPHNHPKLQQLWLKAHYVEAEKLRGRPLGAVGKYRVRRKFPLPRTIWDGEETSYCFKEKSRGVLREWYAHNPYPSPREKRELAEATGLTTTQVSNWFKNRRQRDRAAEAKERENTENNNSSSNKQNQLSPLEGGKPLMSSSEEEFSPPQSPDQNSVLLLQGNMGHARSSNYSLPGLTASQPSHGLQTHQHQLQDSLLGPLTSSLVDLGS
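AlphaScreen with GST-Six1 and His-Eya2 (5X mix: 250 nM and 500 nM), glutathione donor and nickel acceptor beads; buffer 50 mM Tris pH 8.0, 300 mM NaCl, 1 mM TCEP; 1 h at 37 C in the dark.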
* marks the source's active call; other numbers are inactive results; ? = inconclusive; nt = no result given; & = joins results of further samples.

structure,TRPML1 inh,CtBP-E1A inh,D2 PAM,TRPV1 potentiator,Six1-Eya2 blk,TRPML1 agonist
CN(C)C(=O)CSc1nc2ccc(N3C(=O)c4ccccc4C3=O)cc2s1,4,nt,-10,13,4,-0.3
COc1cc(-c2nnc(CSc3nnc(Nc4ccc(Oc5ccccc5)cc4)s3)o2)cc(OC)c1OC,4,-9,-4,9,-16,0.1
CN(C)Cc1c(C(=O)N/N=C/C2CC=CCC2)nnn1-c1nonc1N (stereo not drawn),24,-1,-6,-7,-7,-0.2
COn1c(C)c(C(C)=O)c2c3no[n+]([O-])c3ccc21,12,-1,-6,8,0,0.0
COc1ccc(-c2nnc(SCC(=O)Nc3sc4c(c3C#N)CCC4)n2CC2CCCO2)cc1 (stereo not drawn),40,-11,-15,-4,-12,2.5
CCCCC#Cc1cncc(C(=O)N/N=C/c2ccccc2)c1,38,-1,-1,2,7,0.5
CC(c1ccncc1)C(C)c1ccncc1 (stereo not drawn),-6,0,-13,4,1,0.0
COc1ccc(CC(=O)N(C)Cc2cccc(F)c2)cc1S(=O)(=O)N1CCOCC1,-12,1,2,2,2,0.7
CC(NC(=O)COC(=O)c1ccccc1Nc1ccccc1)c1ccccc1 (stereo not drawn),2,13,3,-1,13,-0.1
COc1ccc(Br)cc1CNC(=O)CCN1C(=O)COc2ccccc21,18,4,1,4,11,1.8
CS(=O)(=O)N(CC(=O)NC1CCCC1)Cc1ccc(Cl)cc1,-27,3,4,-17,-2,2.6
Cc1cccc(C)c1NC(=O)C1C2C=CC(C2)C1C(=O)NCc1ccccn1 (stereo not drawn),14,-19,-2,1,-8,1.8
CCOC(=O)C1C(=O)C=C(c2cccc(NS(C)(=O)=O)c2)CC1c1ccco1 (stereo not drawn),20,-3,0,4,-1,-0.8
CC1CCC2(CC1)NC(=O)N(CC(=O)Nc1cccc(S(=O)(=O)N3CCOCC3)c1)C2=O (stereo not drawn),22,-2,-8,7,4,0.5
Cn1cc(CNCc2cnc3ccccn23)c(-c2ccc(Oc3ccccc3)cc2)n1,36,-17,-16,5,-14,-0.3

Brought forward from above: two compounds, then new ones.
structure,TRPML1 inh,CtBP-E1A inh,D2 PAM,TRPV1 potentiator,Six1-Eya2 blk,TRPML1 agonist
CC1CCC2(CC1)NC(=O)N(CC(=O)Nc1cccc(S(=O)(=O)N3CCOCC3)c1)C2=O (stereo not drawn),22,-2,-8,7,4,0.5
Cn1cc(CNCc2cnc3ccccn23)c(-c2ccc(Oc3ccccc3)cc2)n1,36,-17,-16,5,-14,-0.3
COc1ccc(CNC(=O)C2CCC(CNS(=O)(=O)c3cccs3)CC2)cc1 (stereo not drawn),1&-2,0,1,5,9,1.0&1.5
CCCS(=O)(=O)N1CCC(C(=O)NCCC(C)C)CC1,4,nt,-11,-19,0,0.1
COc1ccc2c(c1)[nH]c1c(=O)n(/N=C/c3ccc(OC)c(CN4CCCC4)c3)cnc12,nt,-8,-12,5,-9,nt
Cc1cc(=O)oc2cc(Oc3ncccc3[N+](=O)[O-])ccc12,6,1,-6,-9,-3,-1.3
Cc1c(-c2ccccc2)oc2c(C(=O)OCC(=O)Nc3ccc(F)cc3)cccc2c1=O,-3,nt,-4,-22,-5,-1.4
O=C(Cc1ccccc1)N/N=C/c1ccc2cccc(O)c2n1,9,13,-4,25,-18,3.3
C[C@H](CO)N1C[C@H](C)[C@@H](CN(C)S(=O)(=O)c2ccccc2)Oc2c(NS(=O)(=O)c3ccccc3)cccc2C1=O,-25,2,-22,nt,0,-0.5
c1ccc(CCn2c(SCc3ccccc3)nnc2-c2ccncc2)cc1,8,0,-14,-9,6,0.5
O=C(Nc1nnc(-c2ccccc2Cl)s1)c1ccccc1F,nt,4,5,8,4,nt
CC(C)C(NS(=O)(=O)c1cccc(C(F)(F)F)c1)C(=O)NCc1cccs1 (stereo not drawn),-6,nt,1,-5,6,-1.1
Cc1ccc(NS(=O)(=O)c2cc(Br)cnc2N)c(Cl)c1,-2,-11,-6,-1,-3,-0.7
COc1ccc(C2CC(c3cccs3)=NN2C(=O)CN2CCCCC2)cc1 (stereo not drawn),7,0,-14,-5,-4,-0.5
CC[C@@H]1[C@H]2CCCC(=O)N3CC[C@@H](C[C@@H]1OC(=O)NCc1ccccc1)[C@@H]23,-30,5,-11,-14,-2,-0.5&-0.1
Cc1ccc2nc(N/N=C/c3ccccc3C#N)nc(-c3ccccc3)c2c1,-13,11,-7,-11,6,-0.8
C=CCn1c(SCC(=O)c2ccc(Br)cc2)nnc1C(C)NC(=O)Cc1ccc(OC)cc1 (stereo not drawn),27,2,3,0,-1,1.4

(cont.)
structure,TRPML1 inh,CtBP-E1A inh,D2 PAM,TRPV1 potentiator,Six1-Eya2 blk,TRPML1 agonist
COc1ccccc1/C=C/C(=O)NC(=S)N1CCN(C)CC1,20,0,0,7,0,-0.3
O=C(CCN1C(=O)c2ccccc2C1=O)Nc1ccc(F)cc1F,18,5,-7,0,3,-0.3
CCOc1cc(C2NC(=O)NC(C)=C2C(C)=O)cc(Cl)c1OCC(=O)O (stereo not drawn),-2,3,-1,4,0,0.5
O=S(=O)(NCCCSc1ccccc1)c1ccccc1F,51,-4,-5,-6,7,1.4
Cc1[nH]c2ccc(-c3n[nH]c(=S)n3-c3ccccc3)cc2c1C,2,-19,-2,5,-13,-0.4
CCCC(CCC)C(=O)NNc1cc(=O)c2c(=O)n(C)c(=O)n(C)c2[nH]1,27,8,15,-10,1,2.7
COc1ccc(CCNC(=S)Nc2ccc(C(C)C)cc2)cc1,28,nt,-18,-30,-15,1.9
CCN(C(=O)CSc1nc(C)nc2sc3c(c12)CCC3)C1CCS(=O)(=O)C1 (stereo not drawn),10,-4,-5,nt,2,0.8
CCCC(=O)Nc1cc(C)cn(Cc2c(F)cccc2Cl)c1=O,41,-3,-13,-4,7,0.8
COc1ccc(CNC(=O)CN(c2ccccc2)S(=O)(=O)N(C)C)cc1,-13&13,3,-9,-5,-4,-0.4&1.4
O=C(Nc1ccc(N2CCOCC2)cc1)c1ccc(Cl)cc1N1CCCC1=O,-10,8,-27,15,-4,-0.1
COc1ccccc1CNC(=O)CCC(=O)N1CCOc2ccc(C)cc21,-4,3,-9,10,3,0.1
COc1cc(C(c2nnnn2C2CCCC2)N2CCc3ccccc3C2)ccc1O (stereo not drawn),0,-5,6,17,14,-0.3
CCN(CC)S(=O)(=O)c1cccc(C(=O)N/N=C2\CCCC(=O)C2)c1,1,0,-9,3,-2,10
O=C(NCc1nnc(SCc2ccccc2)n1-c1ccc(F)cc1)C12CC3CC(CC(C3)C1)C2,3,6,-13,-2,-1,0.0

Pulled by structure from the list above:
structure,TRPML1 inh,CtBP-E1A inh,D2 PAM,TRPV1 potentiator,Six1-Eya2 blk,TRPML1 agonist
O=S(=O)(NCCCSc1ccccc1)c1ccccc1F,51,-4,-5,-6,7,1.4
CCN(CC)S(=O)(=O)c1cccc(C(=O)N/N=C2\CCCC(=O)C2)c1,1,0,-9,3,-2,10
CCN(C(=O)CSc1nc(C)nc2sc3c(c12)CCC3)C1CCS(=O)(=O)C1 (stereo not drawn),10,-4,-5,nt,2,0.8

The results go on:
structure,TRPML1 inh,CtBP-E1A inh,D2 PAM,TRPV1 potentiator,Six1-Eya2 blk,TRPML1 agonist
COC(=O)c1ccc(CNC(=O)c2cc3ccccc3oc2=O)cc1,-4,5,-6,-9,-1,-0.3
COc1ccc(C(=O)N(Cc2ccccc2)c2ccc(C)cc2)cc1S(=O)(=O)N1CCOCC1,-9,-4,-7,-24,-7,-0.1
O=C1CC(SC(=NCc2ccc3c(c2)OCO3)Nc2ccccc2)C(=O)N1c1ccccc1 (stereo not drawn),76,-1,-8,12,-8,2.2
CCN(C(=O)CSc1nnc(-c2cccs2)n1N)c1c(N)n(Cc2ccccc2)c(=O)[nH]c1=O,4,-11,2,15,4,0.7
CN(CCS(=O)(=O)c1ccc(Cl)cc1)Cc1cccnc1,10,10,-1,-18,3,-0.7
COc1cc(OC)cc(C(=O)NCCNc2nc3cc(C)cc(C)c3cc2C#N)c1,-9,nt,0,10,5,0.3
O=c1[nH]ncc(N/N=C/c2ccccc2)c1Cl,6,-2,-1,10,-3,1.1
O=C1c2ccccc2S(=O)(=O)N1CC(O)Cn1ccc2ccccc21 (stereo not drawn),-7,0,2,14,-3,-1.4
Cc1c(-c2ccc(OCc3ccccc3)cc2)nc2ccccc2c1C(=O)O,-12,8,1,1,1,0.5
Cc1c(C(=O)Nc2nnc(SCc3ccccc3Cl)s2)cccc1[N+](=O)[O-],0,9,-2,3,1,-0.1
CC1CCCC(NC(=O)CCC(=O)NCc2ccccc2)C1C (stereo not drawn),20,nt,4,-6,0,-0.5
Cc1ccc(S(=O)(=O)NC(=O)COc2cc(C)ccc2C(C)C)cc1,12,2,-6,-3,0,-0.6
CC1CN(S(=O)(=O)c2cc(C(=O)N3CCCCC3C)ccc2Cl)CC(C)O1 (stereo not drawn),4,0,-6,nt,-4,1.2
CCC(CC)C(=O)Nc1ccc(Cl)c(Cl)c1,10,6,-37,-9,5,0.3
CCOC(=O)C1CCCN(c2c(NCCCN(CC)c3cccc(C)c3)c(=O)c2=O)C1 (stereo not drawn),13,10,4,0,-5,-0.8

New compounds follow.
structure,TRPML1 inh,CtBP-E1A inh,D2 PAM,TRPV1 potentiator,Six1-Eya2 blk,TRPML1 agonist
CCN(c1ccccc1)S(=O)(=O)c1ccc(Cl)c(NC(=O)COC(=O)c2ccc[n+]([O-])c2)c1,17,-10,-4,9,2,-1.1
O=C(COC(=O)c1n[nH]c(=O)c2ccccc12)NC1CCCCC1,17,3,-5,8,-2,-0.5
COc1ccc(CNC(=O)C(C#N)c2nc3ccccc3nc2N2CCCC2)cc1 (stereo not drawn),17,-18,-2,-8,-8,4.5
Cc1ccc(-c2cc(C(=O)N/N=C/c3ccc(Cl)cc3)n[nH]2)o1,-9,-11,-3,?,-14,-0.3
CN(Cc1cnn(-c2ccccc2)c1)C(=O)c1cccc(S(=O)(=O)Nc2ccccc2F)c1,-3,-6,-15,nt,-10,-0.8
Cc1nnc(NC(=O)CSc2cn(CCNC(=O)c3ccccc3)c3ccccc23)s1,4,-3,-4,-1,-3,-0.4
O=C(Nc1ccc(S(=O)(=O)N2CCCCC2c2cccnc2)cc1)c1c(F)cccc1F (stereo not drawn),-5,nt,-12,16,-4,0.7
COc1ccc(-c2ccc(OC)c([C@H]3[C@H]4C=CC[C@@H](C)[C@@H]4C(=O)N3Cc3ccccc3)c2)cc1,51,-4,-5,-11,-1,1.1
